Screening results deposited in PubChem BioAssay by Broad Institute.
BJeLR viability = BJeLR cell viability loss, primary screen, luminescence, CellTiterGlo ATP. BJeLR fibroblasts viability, 48 h; HRASV12, hTERT and SV40 LT/ST transformed. viability loss activity score, % (test concentration not listed). 30,000 compounds, 0.64% hits. AID 2275, 2010; in the data active means viability loss activity score above about 50%; inconclusive means no clear call, values can overlap the other calls; inactive means below about 35%; about a fifth of its hits are not listed in these tables;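 further: higher score means fewer live cells and less ATP luminescence; stock transfer was 50 or 100 nL into about 30 µL; 0% = vehicle wells and 100% = a reference killing control; one replicate is shown; the record names a cut of 85%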
A1 inh = inducers of caspase activity in MEF A1-2A-BIM cells, primary screen, A1 inhibitor project, cell-based, CaspaseGlo luminescence; caspase-Glo luminescence, 3 h; percent of clofoctol signal, DMSO as zero; caspase activation, % (no concentration beside the values); AID 2241, 2010; 21,000 compounds, 0.51% hits;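 active means most replicate scores above 10, or exactly half above 10 with mean activity above 10; inconclusive means mean activity below 10 while half the replicates exceed 10; inactive means most replicate scores below 10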;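 further: effector caspase 3 and 7 activity cleaving a DEVD luciferin substrate; 50 nL library stock added to about 30 µL; numbers are from one replicate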
Numbers without * were called inactive; u = inconclusive; x = not tested or not shown. This is a subset; rates above refer to the full screens.

no.	compound	A1 inh	BJeLR viability
1	Cc1ccc(S(=O)(=O)/N=C(/NC(=S)Nc2ccccc2)c2ccccc2)cc1	x	-6.1
2	C=C(C)CC1(NC(C)c2ccccc2)CCCCC1 (centres undefined)	9.8*	-0.4
3	COc1ccc(CN(C)C[C@@H]2Oc3c(NC(=O)Nc4ccc5c(c4)OCO5)cccc3C(=O)N([C@@H](C)CO)C[C@H]2C)cc1	x	-0.2
4	CCc1sc(-c2ccc(Cl)cc2)nc1C(=O)OC	-4.8	-3.1
5	COc1ccccc1-c1oc2ccccc2c(=O)c1OC(=O)c1cccs1	-1.2	1.2
6	Cc1noc(C)c1NC(=O)Nc1ccc2c(c1)C(=O)N([C@@H](C)CO)C[C@H](C)[C@H](CN(C)S(=O)(=O)c1ccc(F)cc1)O2	-0.8	1.8
7	C[C@H](CO)N1C[C@H](C)[C@H](CN(C)Cc2ccc(Oc3ccccc3)cc2)Oc2c(NS(=O)(=O)c3ccccc3)cccc2C1=O	x	3.1
8	C[C@@H]1CN([C@@H](C)CO)C(=O)c2cccc(NC(=O)c3ccc(-c4nccs4)cc3)c2O[C@@H]1CN(C)C	x	1.8
9	C[C@H]1CN([C@@H](C)CO)C(=O)c2cc(NC(=O)Cc3ccccc3)ccc2O[C@@H]1CN(C)C	0.2	0.2
10	Cc1ccc(CCNC(=O)C2CCCN(Cc3nc(-c4ccc(Cl)cc4)oc3C)C2)cc1 (centres undefined)	x	0.9
11	COc1ccc(C(=O)Nc2ccc(C)cn2)cc1	-7.1	5.3
12	CC(=O)NCCn1c(SCc2ccccc2C)nc2ccccc2c1=O	-0.5	-3.7

Next compounds.
no.	compound	A1 inh	BJeLR viability
13	C[C@H]1CN([C@@H](C)CO)C(=O)c2cccc(NC(=O)Nc3ccccc3)c2O[C@@H]1CN(C)C(=O)NC1CCCCC1	x	-7.4
14	c1ccc(C(c2ccccc2)N2CCN(CCCc3c[nH]c4ccccc34)CC2)cc1	1.1	8.9
15	O=C(NCCN1CCCCC1)Nc1cccc(Cl)c1	0.4	6.3
16	CCC(=O)N1CCNC(=O)C1CC(=O)Nc1ccc(C)c(Cl)c1 (centres undefined)	0.3	-0.3
17	O=C(NCCc1ccccc1)c1ccc(NC2=NC3CS(=O)(=O)CC3S2)cc1 (centres undefined)	1.3	2.1
18	C[C@@H]1CN([C@@H](C)CO)C(=O)c2cc(NC(=O)NC3CCCCC3)ccc2O[C@H]1CN(C)S(=O)(=O)c1ccc(Cl)cc1	-0.5	-2.8
19	C[C@@H]1CN([C@H](C)CO)C(=O)c2cccc(NC(=O)C3CCOCC3)c2O[C@H]1CN(C)C(=O)NC1CCCCC1	x	0.8
20	C[C@H]1CN([C@@H](C)CO)C(=O)c2cccc(NS(C)(=O)=O)c2O[C@H]1CN(C)Cc1ccc(C(F)(F)F)cc1	x	1.8
21	C[C@@H]1CN([C@@H](C)CO)C(=O)c2cc(NC(=O)Cn3cnnn3)ccc2O[C@@H]1CN(C)S(C)(=O)=O	-0.2	-2.8
22	CCN1CCCC1CNC(=O)CCCc1cn(CC)c2ccccc12 (centres undefined)	0.8	2.9
23	Cn1c(C(=O)NC2CCCC2)cc2oc3ccccc3c21	-1.2	15
24	CC(C)C(=O)Nc1c(C(=O)c2ccc(F)cc2)oc2ccccc12	x	4.5

Filtered by structure: those above with a furan ring, fused or not (two)
no.	compound	A1 inh	BJeLR viability
23	Cn1c(C(=O)NC2CCCC2)cc2oc3ccccc3c21	-1.2	15
24	CC(C)C(=O)Nc1c(C(=O)c2ccc(F)cc2)oc2ccccc12	x	4.5

Continued:
no.	compound	A1 inh	BJeLR viability
25	CCc1ccc(CNC(=O)C2CCN(S(=O)(=O)N3CCCCC3)CC2)cc1	0.3	-7.8
26	C[C@H](CO)N1C[C@H](C)[C@H](CN(C)Cc2ccc(Cl)c(Cl)c2)Oc2ccc(NC(=O)Nc3ccc(C(F)(F)F)cc3)cc2C1=O	0.2	-0.2
27	NS(=O)(=O)c1ccc(NC(=O)COC(=O)c2cccc(N3C(=O)CCC3=O)c2)cc1	1.0	-0.5
28	C[C@H](CO)N1C[C@H](C)[C@@H](CN(C)S(=O)(=O)c2cn(C)cn2)Oc2ccc(NC(=O)Nc3ccccc3)cc2C1=O	-0.3	8.2
29	Cn1c2c(c3cc(Oc4ccccc4)ccc31)CCCC2=O	0.3	0.0
30	CCOC(=O)CSc1nc2c(cc1C#N)CCCC2	1.4	2.1
31	Nc1nc(CSc2nnc3c(n2)[nH]c2ccccc23)cs1	-1.1	-4.6
32	CCOC(=O)c1cnn(C(=O)Cc2cccc(OC)c2)c1N	-0.2	-1.4
33	C=C1SC(Nc2ccc(C)cc2)=NC1(C)C	0.1	0.0
34	COc1cccc(CNC(=O)c2[nH]c3cc(C)ccc3c2Sc2ccc(Cl)cc2)c1OC	-0.2	4.0
35	CC(Oc1ccccc1)C(=O)N[C@@H]1C(=O)N2[C@@H]1SC(C)(C)[C@@H]2C(=O)O (some centres undefined)	-1.0	-3.4
36	Cc1noc(C)c1S(=O)(=O)Nc1ccc2c(c1)C(=O)N([C@H](C)CO)C[C@@H](C)[C@H](CN(C)Cc1ccc(C(=O)O)cc1)O2	0.5	3.8

Some of the entries so far, as labelled records.
30: CCOC(=O)CSc1nc2c(cc1C#N)CCCC2
  A1 inh = 1.4
  BJeLR viability = 2.1

31: Nc1nc(CSc2nnc3c(n2)[nH]c2ccccc23)cs1
  A1 inh = -1.1
  BJeLR viability = -4.6

26: C[C@H](CO)N1C[C@H](C)[C@H](CN(C)Cc2ccc(Cl)c(Cl)c2)Oc2ccc(NC(=O)Nc3ccc(C(F)(F)F)cc3)cc2C1=O
  A1 inh = 0.2
  BJeLR viability = -0.2

Going on with the list.
no.	compound	A1 inh	BJeLR viability
37	Cc1ccc(S(=O)(=O)Nc2ccc3c(c2)C(=O)N([C@@H](C)CO)C[C@@H](C)[C@@H](CN(C)Cc2ccc(-c4ccccc4)cc2)O3)cc1	0.8	-3.4
38	C[C@H]1CN([C@@H](C)CO)C(=O)c2cc(NC(=O)Nc3ccc(F)cc3)ccc2O[C@H]1CN(C)S(=O)(=O)c1ccc(Cl)cc1	0.7	2.2
39	O=C(Nc1ccccc1)OCc1cc(-c2ccccc2)c(C(F)(F)F)s1	-0.7	-1.5
40	COC(=O)Nc1c(C)n(C)n(-c2ccccc2)c1=O	0.9	5.1
41	Cc1ccc2[nH]c(=S)n(C3CC4C=CC3C4)c(=O)c2c1 (centres undefined)	0.7	-0.5
42	Cc1ccc(CSCC(=O)N2CCN(c3ccccc3)CC2)cc1	-0.8	1.1
43	COc1cc2c(cc1OC)C(Nc1ccc(Br)cc1)=NC(C)(C)C2	1.2	0.9
44	O=C(Cc1nc(-c2cccs2)no1)Nc1cccc(C(F)(F)F)c1	-0.5	2.7
45	Oc1ccccc1CNCc1ccccn1	-0.6	-4.2
46	CCOC(=O)C1CCN(C(c2cccc(Cl)c2)c2c(NC(C)=O)sc3c2CCCC3)CC1 (centres undefined)	-0.9	-2.6
47	Cn1c(C(=O)NCc2ccccc2)cc2oc3ccccc3c21	-0.1	x
48	CCc1ccc(CNC(=O)COc2cc(=O)n(C)c3ccccc23)cc1	x	3.1

Remaining list, next part:
no.	compound	A1 inh	BJeLR viability
49	CCc1ccc(NC(=O)c2cc3c(=O)oc4ccccc4c3s2)cc1	x	3.3
50	C[C@@H]1CN([C@@H](C)CO)C(=O)c2cccc(NS(=O)(=O)c3cccs3)c2O[C@H]1CN(C)CC1CCCCC1	x	0.7
51	C[C@@H]1CN([C@@H](C)CO)C(=O)c2cccc(NS(=O)(=O)c3ccc(F)cc3)c2O[C@H]1CN(C)CC1CC1	x	3.9
52	C[C@@H]1CN([C@H](C)CO)C(=O)c2cccc(NC(=O)c3ccncc3)c2O[C@@H]1CN(C)C(=O)Nc1cccc2ccccc12	x	-3.6
53	C[C@H]1CN([C@@H](C)CO)C(=O)c2cc(NS(=O)(=O)c3ccccc3)ccc2O[C@@H]1CN(C)S(=O)(=O)c1cn(C)cn1	0.1	0.3
54	CC(C)NC(=O)Nc1ccc2c(c1)C(=O)N([C@@H](C)CO)C[C@@H](C)[C@H](CN(C)C(=O)NC1CCCCC1)O2	0.9	1.0
55	C[C@@H]1CN([C@H](C)CO)C(=O)c2cc(NS(=O)(=O)c3ccccc3)ccc2O[C@@H]1CN(C)Cc1ccncc1	1.3	-2.7
56	CC1OC(OCC2OC(Oc3cc(O)c4c(=O)c(-c5ccc(O)cc5)coc4c3)C(O)C(O)C2O)C(O)C(O)C1OC1OC(CO)C(O)C(O)C1O (centres undefined)	-0.1	1.1
57	COCCn1cc(C(=O)NC2CCCCCC2)c2c3ccccc3n(C)c2c1=O	x	2.9
58	COc1cccc(-c2c(C(N)=O)nnc3cc(-c4ccccc4)nn23)c1	0.2	1.7
59	N/C(=N\O)c1ccc(N2CCN(c3ncccc3C(F)(F)F)CC2)nc1	-2.1	-7.9
60	CC1CC2OC(C)(C)OC2C(OC(=O)c2ccccc2)O1 (centres undefined)	2.8	-2.1

Other entries follow.
no.	compound	A1 inh	BJeLR viability
61	CN(CCOC(=O)Nc1cccc(Cl)c1)c1ccc(C#N)cn1	0.1	-0.8
62	Cc1noc(C)c1NC(=O)Nc1cccc2c1O[C@@H](CN(C)CC1CCCCC1)[C@H](C)CN([C@H](C)CO)C2=O	x	1.0
63	C[C@@H]1CN([C@@H](C)CO)C(=O)c2cccc(NC(=O)c3cnccn3)c2O[C@H]1CN(C)S(=O)(=O)c1ccc(F)cc1	x	0.8
64	C[C@@H]1CN([C@@H](C)CO)C(=O)c2cccc(NS(=O)(=O)c3cn(C)cn3)c2O[C@@H]1CN(C)CC1CCCCC1	x	-3.2
65	C=CCn1c(SCc2ccc(C#N)cc2Cl)nnc1-c1cccc(OC)c1	0.4	-1.1
66	C[C@H]1CN([C@@H](C)CO)C(=O)c2cccc(NC(=O)Nc3cccc4ccccc34)c2O[C@H]1CN(C)S(=O)(=O)c1ccccc1	x	0.9
67	CC(C)C1=CCC(C)/C(=C\c2ccc(Cl)cc2)C1=O (centres undefined)	-0.4	-3.1
68	C[C@H](CO)N1C[C@H](C)[C@H](CN(C)S(=O)(=O)c2ccc(Cl)cc2)Oc2ccc(NC(=O)Cc3cn(C)c4ccccc34)cc2C1=O	-0.3	-6.5
69	C[C@H](CO)N1C[C@H](C)[C@@H](CN(C)Cc2ccc(-c3ccccc3)cc2)Oc2c(NC(=O)C3CCOCC3)cccc2C1=O	x	0.9
70	C[C@@H]1CN([C@@H](C)CO)C(=O)c2cccc(NC(=O)c3cnccn3)c2O[C@@H]1CN(C)C(=O)NC1CCCCC1	x	1.3
71	COc1ccc(S(=O)(=O)NCCN2CCOCC2)cc1-c1nnc2c3ccccc3c(C)nn12	x	13
72	CNC(=O)Nc1ccc(C2SCCS2)cc1	-2.5	-3.8

Following part.
no.	compound	A1 inh	BJeLR viability
73	C[C@@H]1CN([C@@H](C)CO)C(=O)c2cc(NC(=O)CCC(F)(F)F)ccc2O[C@@H]1CN(C)C	0.3	-3.8
74	CNCCNS(=O)(=O)c1cccc2cnccc12	-0.4	3.6
75	COC(=O)CSc1nnc(-c2ccncc2)n1-c1ccc(OC)cc1	x	-2.6
76	COc1ccc(NC(=O)N(C)C[C@@H]2Oc3ccc(NC(=O)Nc4cccc5ccccc45)cc3C(=O)N([C@@H](C)CO)C[C@@H]2C)cc1	0.9	-3.0
77	O=C1c2ccccc2C(=O)N1CCN1CCCCC1	-0.2	-4.6
78	C[C@@H]1CN([C@@H](C)CO)C(=O)c2cc(NC(=O)Nc3ccc(C(F)(F)F)cc3)ccc2O[C@H]1CN(C)S(=O)(=O)c1cn(C)cn1	1.0	-0.2
79	CCOc1ccc(NC(=O)CN2C(=O)C3(OCCCO3)c3ccccc32)cc1	0.6	-1.7
80	COc1ccc(NC(=O)Nc2ccc3c(c2)C(=O)N([C@@H](C)CO)C[C@@H](C)[C@H](CN(C)Cc2ccc(C(=O)O)cc2)O3)cc1	-0.7	1.6
81	C[C@H]1CN([C@@H](C)CO)C(=O)c2cc(NS(=O)(=O)c3cccs3)ccc2O[C@@H]1CN(C)C(=O)Nc1ccc2c(c1)OCO2	-0.2	0.2
82	Cc1ccc(S(=O)(=O)N2CC=C(C(=O)NCc3cccs3)CC2)cc1	0.5	-2.2
83	C[C@@H]1CN([C@H](C)CO)C(=O)c2cc(NC(=O)c3ccncc3)ccc2O[C@@H]1CN(C)C(=O)Nc1ccc(C(F)(F)F)cc1	0.0	-0.8
84	O=C(NCCN1CCCC1)Nc1ccccc1C(F)(F)F	x	-4.3

New compounds follow
no.	compound	A1 inh	BJeLR viability
85	CCOC(=O)c1c(C2CCN(C(=O)OCC)CC2)nc2ccccn12	x	-0.7
86	c1ccc(CN(CCN(Cc2ccccn2)Cc2ccccn2)Cc2ccccn2)nc1	u	110*
87	O=C(NCCn1ccc2ccccc21)c1ccc(F)cc1	x	-4.7
88	CC(C)NC(=O)N(C)C[C@H]1Oc2c(NC(=O)C3CCOCC3)cccc2C(=O)N([C@H](C)CO)C[C@H]1C	x	0.1
89	Fc1ccc(CN(C(=S)Nc2ccccc2F)C2CCCCC2)cc1	1.2	4.3
90	CC12CN3CC(C)(CN(C1)C3C1CCCCC1)C2=O (centres undefined)	0.0	-3.2
91	CC1CCCCN1C(=O)C1c2ccccc2Oc2ccccc21 (centres undefined)	1.0	-2.6
92	C[C@@H]1CN([C@@H](C)CO)C(=O)c2cc(NS(=O)(=O)c3ccc(Cl)cc3)ccc2O[C@@H]1CN(C)C(=O)NC1CCCCC1	0.3	-1.8
93	O=C(NCc1ccc(Cl)cc1)c1cc(-c2ccc(F)cc2)nc2ccccc12	0.0	2.4
94	CC(C)(C)C(=O)Nc1ccn([C@H]2C[C@H](O)[C@@H](COC(=O)C(C)(C)C)O2)c(=O)n1	-0.1	-1.0
